Bioassay records from PubChem.
VDR inh: vitamin D3 receptor (human) inhibition; P11473; Potency, µM, for the others: max response, negative = inhibition, hits mostly inhibitors; VDR-SRC2-3 peptide fluorescence polarization, 2 h; hit rate 0.93% among 400,000; active means well fitted inhibition curve with a large enough effect; inconclusive means small, poorly fitted or top-dose-only effect, or another doubt; inactive means no such curve, though single readings can be large or run the other way; further: series mostly up to about 120 µM
Target sequence (P11473 whole entry, looked up): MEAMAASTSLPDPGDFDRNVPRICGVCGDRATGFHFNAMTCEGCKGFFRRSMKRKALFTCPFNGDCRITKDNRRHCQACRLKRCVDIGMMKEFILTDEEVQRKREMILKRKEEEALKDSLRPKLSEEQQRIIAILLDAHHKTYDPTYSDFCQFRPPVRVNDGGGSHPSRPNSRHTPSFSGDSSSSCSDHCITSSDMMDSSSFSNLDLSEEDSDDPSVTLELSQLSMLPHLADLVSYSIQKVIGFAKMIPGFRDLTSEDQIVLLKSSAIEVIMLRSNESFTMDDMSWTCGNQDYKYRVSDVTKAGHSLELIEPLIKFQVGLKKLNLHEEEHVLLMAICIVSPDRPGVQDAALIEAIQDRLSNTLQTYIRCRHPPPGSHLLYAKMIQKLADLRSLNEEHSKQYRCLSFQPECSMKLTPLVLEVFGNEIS
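After 23 nl compound addition and a short centrifugation, plates sat for 2 hours at ambient temperature; polarization of fluorescence then indicated loss of VDR binding to peptide SRC2-3.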
Active calls of the source: *; ? = inconclusive; & = joins results of further samples. On the % scale 0 is the no-effect control and ±100 the full control effect; potency means the concentration at half of the fitted maximal effect.

SMILES,VDR inh
COc1cc2c(cc1OC)CN(C(=O)CN1CCN(S(=O)(=O)c3ccccc3)CC1)CC2,-2%
CC1=Nc2cc([N+](=O)[O-])ccc2NC(C)(C)C1,-24%
CCOc1ccc(N2C(=O)C(c3ccccc3)=C(c3nc4ccccc4s3)C2NC(C)=O)cc1 (stereo not given),-13%
CCOC(=O)c1c(-c2ncc(C(F)(F)F)cc2Cl)noc1C,9%
COC(=O)Cc1cn(-c2ncc(C(F)(F)F)cc2Cl)c2ccccc12,-13%
NC1=NC[C@@H](Cc2ccc(O)cc2)N1CCc1cccc(F)c1,0%
Cc1noc(C)c1COC(=O)CCN1c2ccccc2Sc2ccccc21,?
O=C(Nc1ccccc1)C1CCN(S(=O)(=O)c2ccc3[nH]c4c(c3c2)CCCCC4)CC1,10%
CC1CCc2nn(CC(=O)Nc3c(F)cc(F)cc3Br)cc2C1 (stereo not given),-1%
CC(C)C(=O)N1CCN(c2ccccc2NC(=O)COc2ccccc2)CC1,6%
Cc1ccc(NC(=O)c2cccs2)cc1NC(=O)c1ccc(F)cc1,-10%
CC1CCC(C(C)C)C(OC(=O)COC(=O)c2ccc(N)cc2)C1 (stereo not given),-3%
CCN(CC)S(=O)(=O)c1cccc(C(=O)N/N=C/c2ccc(OC)c(O)c2)c1,-2%
CCOC(=O)Cn1c(=O)c2c(nc(N3CCOCC3)n2Cc2ccccc2)n(C)c1=O,-6%
Cc1ccc2nc(-c3ccc(NS(=O)(=O)c4ccc(F)c(F)c4)cc3)sc2c1,-11%
CCN(CC)S(=O)(=O)c1cccc(NC(=O)COC(=O)c2cc(=O)c3ccccc3o2)c1,?
CC(C)Oc1ccc(CNS(=O)(=O)c2ccc(-c3cc(C(F)(F)F)on3)s2)cc1,26%
O=C(ONC1=NCCCCC1)c1c(F)cccc1F,8%
Cc1ccc(C)c(C(=O)COC(=O)c2ccc(Br)o2)c1,19%
COC(=O)c1ccc(CSc2nc3sc(C)c(C)c3c(=O)[nH]2)cc1,-5%
COc1ccc(N2Cc3ccccc3C2)cc1Cl,-10%
CCCOc1ccc(/C=c2\sc3ncnn3c2=O)cc1,?
CC(C)CC[n+]1ccn(-c2nc3ccccc3nc2[N-]S(=O)(=O)c2ccc(Cl)cc2)c1,5%
CCC(=O)Nc1cc(OC)c(NC(=O)c2ccccc2)cc1OC,7%
O=[N+]([O-])c1ccc(O)c(-c2nc(-c3ccccc3)c(-c3cccs3)[nH]2)c1,-4%
Cc1cc(C)cc(OCCOCCn2c(-c3ccc(Cl)cc3)nc3ccccc3c2=O)c1,-101%
NNC(=O)CCC(=O)Nc1ccccc1,-2%
CCCCOc1ccccc1C1C(C(=O)OC)=C(C)N(C)C(C)=C1C(=O)OC,8%
Cn1cc(C(=O)NC2CCCCC2)c(=O)c2cc(S(=O)(=O)N3CCOCC3)ccc21,-9%
CCOC(=O)c1c(NC(=O)COC(=O)Cc2c[nH]c3ccccc23)sc(C(=O)N(C)C)c1C,10%

Another view of some results above:
VDR inh,Structure
-2%,COc1cc2c(cc1OC)CN(C(=O)CN1CCN(S(=O)(=O)c3ccccc3)CC1)CC2
-24%,CC1=Nc2cc([N+](=O)[O-])ccc2NC(C)(C)C1
-13%,CCOc1ccc(N2C(=O)C(c3ccccc3)=C(c3nc4ccccc4s3)C2NC(C)=O)cc1 (stereo not given)
9%,CCOC(=O)c1c(-c2ncc(C(F)(F)F)cc2Cl)noc1C
-13%,COC(=O)Cc1cn(-c2ncc(C(F)(F)F)cc2Cl)c2ccccc12
0%,NC1=NC[C@@H](Cc2ccc(O)cc2)N1CCc1cccc(F)c1
?,Cc1noc(C)c1COC(=O)CCN1c2ccccc2Sc2ccccc21
10%,O=C(Nc1ccccc1)C1CCN(S(=O)(=O)c2ccc3[nH]c4c(c3c2)CCCCC4)CC1
-1%,CC1CCc2nn(CC(=O)Nc3c(F)cc(F)cc3Br)cc2C1 (stereo not given)
6%,CC(C)C(=O)N1CCN(c2ccccc2NC(=O)COc2ccccc2)CC1
-10%,Cc1ccc(NC(=O)c2cccs2)cc1NC(=O)c1ccc(F)cc1
-3%,CC1CCC(C(C)C)C(OC(=O)COC(=O)c2ccc(N)cc2)C1 (stereo not given)
-2%,CCN(CC)S(=O)(=O)c1cccc(C(=O)N/N=C/c2ccc(OC)c(O)c2)c1
-6%,CCOC(=O)Cn1c(=O)c2c(nc(N3CCOCC3)n2Cc2ccccc2)n(C)c1=O
-11%,Cc1ccc2nc(-c3ccc(NS(=O)(=O)c4ccc(F)c(F)c4)cc3)sc2c1
?,CCN(CC)S(=O)(=O)c1cccc(NC(=O)COC(=O)c2cc(=O)c3ccccc3o2)c1
26%,CC(C)Oc1ccc(CNS(=O)(=O)c2ccc(-c3cc(C(F)(F)F)on3)s2)cc1
8%,O=C(ONC1=NCCCCC1)c1c(F)cccc1F
19%,Cc1ccc(C)c(C(=O)COC(=O)c2ccc(Br)o2)c1
-5%,COC(=O)c1ccc(CSc2nc3sc(C)c(C)c3c(=O)[nH]2)cc1
-10%,COc1ccc(N2Cc3ccccc3C2)cc1Cl
?,CCCOc1ccc(/C=c2\sc3ncnn3c2=O)cc1
5%,CC(C)CC[n+]1ccn(-c2nc3ccccc3nc2[N-]S(=O)(=O)c2ccc(Cl)cc2)c1
7%,CCC(=O)Nc1cc(OC)c(NC(=O)c2ccccc2)cc1OC

The list goes on:
SMILES,VDR inh
COc1cc2c(cc1NC(=O)CC1SC(N3CCCC3)=NC1=O)oc1ccccc12 (stereo not given),0%
Cc1ccc(N2C(=O)CC3(CC4C=CC3C4)C2=O)cc1 (stereo not given),0%
COC(=O)Cc1c(-c2[nH]c3ccccc3c2CC(=O)OC)[nH]c2ccccc12,-8%
CC(CCn1cccn1)NC(=O)CCc1nnc(C2CCCCC2)o1 (stereo not given),-4%
C=CCNC(=O)c1onc(CSc2ccc(F)c(F)c2)c1C(=O)O,?
CCc1ccc(C(c2ccccc2)c2c[nH]c3ccc(C)cc23)s1 (stereo not given),?
Cc1c(C)c2c(c(C)c1O)CCC(C)(COc1ccc(CC3SC(=O)NC3=O)cc1)O2 (stereo not given),-16%&-13%&-12%
O=C(c1ccc(F)cc1Cl)N(c1ccccn1)C1CCCCC1,5%
CN(CCC#N)C(=O)CSc1nnc(-c2c[nH]c3ccccc23)o1,2%
Cc1cc(SCC(=O)c2cc3ccccc3o2)nc2ccccc12,27%
Cc1cc(SCC(=O)Nc2cccc(S(=O)(=O)N3CCOCC3)c2)nc2ccccc12,-6%
CCOC(=O)/C(CCC[N+](C)(CC)CC)=N\O,3%
O=C(COc1cc(Cl)c(Cl)cc1Cl)Nn1cnnc1,0%
O=C(CCl)N(c1ccccc1)c1c[nH]c2ccccc12,-24%
CNC(=O)C1CN(C(=O)c2cccc(S(=O)(=O)N3c4ccccc4CC3C)c2)c2ccccc2O1 (stereo not given),-23%
CC(C)N(C(=O)[C@H]1C[C@H](CC(=O)NCCCn2ccnc2)C(=O)N2CCc3c([nH]c4ccc(Cl)cc34)[C@]12C)C(C)C,14%
CC(C)[C@@H](C(=O)N1CCN(Cc2ccc3c(c2)OCO3)CC1)n1nnc2ccccc2c1=O,-8%
COC(=O)c1ccc(N/C=C/C(=O)c2ccc(OC)c(OC)c2)cc1,0%
Cc1ccc2oc(=O)c(-c3nc4ccc(C)cc4[nH]3)cc2c1,24%
Cc1ccc(C)c(S(=O)(=O)N2CCN(C(=O)c3cc(-c4cccs4)nn3-c3ccccc3)CC2)c1,-8%
Cc1ccc(NC2CCCN(C(=O)CN3C(=O)CSC3=O)C2)cc1C (stereo not given),1%
Clc1cccc(N2CCN(c3nc4ccccc4c4nc(-c5ccccc5)nn34)CC2)c1,-1%
Cc1[nH]c2ccccc2c1/C=N/NC(=O)CCC(=O)NCc1ccccc1,-21%
CCOc1ccc(CCNC(=O)CCn2cccc2)cc1OCC,5%
COc1ccc(C(=O)Nc2ccccc2N2CCCC2)cc1S(=O)(=O)N1CCOCC1,-10%
COc1ccc(CCNC(=O)CSc2nnnn2C)cc1OC,-7%
O=C(OC1CCCCC1=O)c1cc(=O)c2ccccc2o1 (stereo not given),-10%
CC(NC(=O)CSCc1ccccc1Br)c1ccccc1 (stereo not given),-21%
CN(CCO)c1ccc(-c2n[nH]c(=O)c3ccccc23)cc1[N+](=O)[O-],-6%
CCCN(CC(=O)Nc1cc(Cl)ccc1Cl)C(=O)/C=C/c1ccco1,-6%
Cc1ccc(NC(C#N)c2ccccc2OCc2ccccc2)cc1 (stereo not given),-18%

This is a subset (hit frequency here may not be typical).
